# Assay outcomes: PubChem BioAssay, several laboratories
# HNF4A DNA FP – change in binding of human HNF4 alpha to DNA. HNF4a-FITC DNA binding, fluorescence polarization, 1 h. activity change, % at 10 µM. 360,000 tested, 0.3% active; in the data active = activity change above about 30%, passing the limit was not always enough;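 note: controls were the assay level and a saturating level of protein; the project sought stronger binding though the title names inhibitors; some compounds called inactive have numbers as strong as hits; positive values seem to mean higher polarization but the record does not say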
# Target sequence (P41235 whole entry, looked up): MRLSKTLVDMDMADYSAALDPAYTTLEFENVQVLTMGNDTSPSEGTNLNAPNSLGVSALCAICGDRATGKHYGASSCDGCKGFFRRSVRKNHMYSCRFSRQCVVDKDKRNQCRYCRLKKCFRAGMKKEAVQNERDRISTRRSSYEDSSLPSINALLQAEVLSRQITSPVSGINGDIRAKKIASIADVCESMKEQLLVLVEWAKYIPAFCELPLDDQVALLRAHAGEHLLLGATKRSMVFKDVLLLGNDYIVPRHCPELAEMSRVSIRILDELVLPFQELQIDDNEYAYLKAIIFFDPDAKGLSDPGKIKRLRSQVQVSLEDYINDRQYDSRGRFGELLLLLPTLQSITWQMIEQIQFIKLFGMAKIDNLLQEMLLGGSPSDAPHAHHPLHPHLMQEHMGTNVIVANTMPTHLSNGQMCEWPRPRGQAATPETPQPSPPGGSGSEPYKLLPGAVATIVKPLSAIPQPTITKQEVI
# B2AR ag – activates human beta-2 adrenergic receptor causing internalization | P07550 | Am2.2-beta2AR cells, FAP receptor internalization, flow cytometry; reference of the scale not given here | response, % (concentration not given with the values) | 340,000 tested, 0.43% active;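 active = response above a set limit, near 3 SD of response in nonfluorescent compounds, cut at about 42% in these data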;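 note: stock transfer was 100 nL into about 11 µL; a reference agonist was the positive control; negative values mostly stem from fluorescent compounds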
# Calb FLC – affects C. albicans growth with fluconazole; C. albicans CaCi-2 (fluconazole-resistant clinical isolate) + fluconazole, Alamar Blue growth, 48 h; growth inhibition, % (no concentration beside the values); 300,000 tested, 0.57% active; AID 1979;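 active = most replicates above 75%; inconclusive = exactly half above 75%; inactive = most below 75%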;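 note: all wells also contain fluconazole at 8 µg/ml as a sub-toxic cotreatment; 0% = median of DMSO wells and 100% = median of geldanamycin control wells; wells of about 8 µL received 7.5 nL stock; the first replicate is given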
# LANA-H2B inh – blocks KSHV LANA binding to histone H2A/H2B | 320,000 tested, 0.6% active | Q9QR71 | inhibition, % (no concentration beside the values) | cell-free LANA-H2A/H2B peptide, fluorescence polarization; in the data active = inhibition mostly above about 10%, no sharp cut-off; inactive = mostly below about 6.7%;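 note: stock transfer was 7.5 nL into about 10 µL; 0% = median of vehicle wells and 100% = median of positive control wells; one replicate is shown; the record names a cut of 25% in any replicate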
# Vif A3G – HIV-1 Vif–A3G interaction blockers – biochemical, TR-FRET, GST-Vif 1-94, biotin-A3G peptide, dose response retest, primary screen (AID 1117319) | TR-FRET GST-Vif / biotin-A3G peptide binding; higher % means a stronger effect; test concentration not given here; strong numbers were not always called active | inhibition, %; hits with a dose series show IC50 in µM | 260,000 tested, 0.57% active;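 active = above the screen mean plus three standard deviations and confirmed in dose response; inconclusive = results disagree or hit not tested in dose response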;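 note: Vif residues 1-94 fused to GST binding biotinylated APOBEC3G peptide 110-148; 0% = full assay without inhibitor and 100% = GST in place of GST-Vif; retest series ran down from 100 µM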
# ALR inh – inhibitors of human sulfhydryl oxidase ALR | P55789 | 290,000 tested, 3.8% active | AID 485317 | inhibition, % (concentration not given with the values) | purified ALR, DTT oxidation, H2O2 HRP-luminol luminescence;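 active = mean and each replicate at 75% or more; inconclusive = only one of the two met; inactive = neither met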;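 note: stock transfer was 7.5 nL into about 7.5 µL; 0% = neutral wells and 100% = wells with inactivated enzyme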
# Target sequence (P55789 whole entry, looked up): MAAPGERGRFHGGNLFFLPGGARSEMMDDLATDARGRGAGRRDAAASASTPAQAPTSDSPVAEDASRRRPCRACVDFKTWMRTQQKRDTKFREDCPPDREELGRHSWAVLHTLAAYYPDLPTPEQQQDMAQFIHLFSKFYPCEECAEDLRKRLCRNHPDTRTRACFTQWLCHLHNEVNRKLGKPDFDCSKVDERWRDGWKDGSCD
# RanGTP-Impb inh – disruptors of Ran-importin-beta complex formation – biochemical, FRET, CFP-Ran, YFP-importin-beta, homogeneous, primary screen. cell-free CFP-Ran/YFP-importin-beta FRET ratio. inhibition, % (no concentration beside the values). 300,000 tested, 1.1% active. AID 2216;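 active = most replicates above 15%; inconclusive = exactly half above 15%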;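 note: 0% = DMSO wells and 100% = Ran loaded with GDP instead of GTP; wells of about 40 µL received 100 nL stock; the first replicate is given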
# An asterisk follows results filed as active; u = inconclusive; x = no result given; & = joins results of further samples. This is a random part of the collection; overall some 6.3% were active at least once.
SMILES,HNF4A DNA FP,B2AR ag,Calb FLC,LANA-H2B inh,Vif A3G,ALR inh,RanGTP-Impb inh
O=C1c2ccccc2C(=O)N1CCc1c(-c2ccccc2)[nH]c2ccccc12,1.6,25,x,x,-2%,x,x
CC(=O)c1ccc(Oc2nc3c(c(=O)n(C)c(=O)n3C)n2C)cc1,2.5,-2,-29,-3.1,u,-7,1.2
CCOc1ccc(S(=O)(=O)NCCC(=O)OCC(=O)c2ccc[nH]2)cc1,3.1,0,6,-1.7,u,3,0.6
Cc1csc(=O)n1CC(=O)OCc1nnc(-c2ccccc2)o1,2.4,5,-9,4.4,-2%,7,-1.9
O=C(COC(=O)c1ccccc1C(F)(F)F)NC(=O)NCc1ccco1,3.3,8,x,3.0,x,1,x
CCOc1cc(Br)ccc1S(=O)(=O)N1CC(C)OC(C)C1 (stereo not given),-0.2,-10,34,1.9,13%,-1,1.7
CN(C)S(=O)(=O)c1ccc(N2CCCC2)c(C(=O)NC2CCC(O)CC2)c1 (stereo not given),4.1,-1,-12,-3.1,-6%,-3,-2.8
Cc1ccc(NC(=O)NNS(=O)(=O)c2ccc(Br)cc2)cc1,-1.9,11,-5,1.6,-4%,-7,1.8
Brc1ccccc1OCCOc1cccc2cccnc12,4.3,14,3,0.7,0%,x,1.5
CCN(CC(=O)Nc1cccc(S(=O)(=O)N2CCCC2)c1)CC(=O)Nc1ccccc1OC,3.7,12,34,-4.7,-9%,-9,9.1
CC1=CC(=C2C(=O)c3ccccc3C2=O)C=C(C)O1,2.3,-5,3,-8.7,16%,4,-0.9
Cc1ccc(S(=O)(=O)NC(CC(=O)O)c2ccc(F)cc2)cc1 (stereo not given),0.6,-5,-3,-6.0,x,-18,3.5
CSc1ncccc1C(=O)OCC(=O)N1CCCC1,-2.6,5,x,-1.6,x,-3,x
COc1ccc(OCC(=O)N/N=C(\C)c2ccc(OC)cc2)cc1,-0.2,0,0,2.9,-9%,x,3.9
O=C(CSc1ccccc1)Nc1nc2ccccc2[nH]1,-0.5,-13,-14,-6.9,11%,x,-0.6
COc1ccc(NC(=O)Nc2cnccn2)c(OC)c1,1.4,-6,1,1.6,-6%,-14,0.8
CCCc1nnc(NC(=O)CCC(=O)NCc2ccc(OC)cc2)s1,1.7,3,-42,0.8,1%,-2,9.6
Cc1ccc(S(=O)(=O)NCC2CCC(C(=O)N3CCOCC3)CC2)cc1 (stereo not given),-1.6,7,3,-1.6,4%,x,2.0
CC(c1ccccc1)C(CC(=O)O)C(=O)Nc1ccc(Cl)c(Cl)c1 (stereo not given),-1.4,-1,-2,0.1,x,2,3.6
COc1cc(OC)cc(C(=O)NCC2CCCN(C(=O)c3csc(C(C)C)n3)C2)c1 (stereo not given),0.7,1,34,-6.6,x,-7,0.6
COc1cc(OC)c(Nc2cc(C)nc3nc(C)nn23)cc1Cl,3.7,-1,-3,-1.3,-2%,1,-0.4
O=C(NCc1ccco1)C(c1ccccc1)N(C(=O)Cc1cccs1)c1ccccc1F (stereo not given),-2.1,11,2,0.9,2%,x,10.0
COc1ccccc1CNC(=O)Nc1cccs1,7.9,-2,-8,0.6,30%,97*,2.6
CC(C)=CCCC1(C)C=Cc2c(ccc3c2[nH]c2cc(O)c(C)cc23)O1 (stereo not given),1.4,17,1,-2.3,x,x,4.9
COC(=O)c1ccc(NC(=O)CCN2CCN(Cc3ccccc3)CC2)cc1,5.8,-10,-17,4.0,9%,-11,1.7
O=C(COC(=O)CCc1ccccc1)Nc1ccc(F)cc1Cl,-3.2,5,7,0.5,x,39,3.4
Cc1ccc(C)c(N2CCN(C(=O)c3ccccc3Br)CC2)c1,-2.8,-2,2,-0.5,-4%,9,2.7
CC(C)C(=O)N[C@@H]1c2ccccc2CC[C@@H]1OCc1ccccc1,-2.0,-8,x,x,5%,x,x
COCCN(C(=O)c1snc(C(N)=O)c1N)C(C(=O)NC1CCCCC1)c1ccc(F)cc1 (stereo not given),-1.7,-4,4,-0.8,15%,-15,6.6
Cc1ccc2c(CSc3nncn3C)cc(=O)oc2c1C,-8.8,6,-12,2.1,6%,-6,-1.5
COc1ccc2c(c1)oc(=O)c1ccccc12,4.2,-5,0,-2.0,-27%,-7,4.1
CCn1c(=NC(=O)CSCC(=O)Nc2nccs2)sc2ccccc21,-2.9,-4,-8,0.8,0%,-18,2.1
Cc1cc(=O)oc2cc(NC(=O)c3cccc(Br)c3)ccc12,7.7,-11,7,0.0,x,x,0.2
Oc1c(CN2CCOCC2)cc(-c2ccccc2)cc1CN1CCOCC1,0.7,-3,15,-2.1,2%,38,-6.6
COc1ccc(CC(=O)N2N=C(c3ccncc3)CC2(O)C(F)(F)F)cc1 (stereo not given),-1.4,-71,-6,-3.3,0%,0,0.4
CCOC(=O)c1ccc(N=c2ssnc2Cl)cc1,2.3,4,-34,x,x,x,-3.6
Cc1nn2cnnc2c(C)c1Cc1ccc(Cl)cc1,0.9,6,2,2.0,-6%,0,3.3
Cc1cc(C)c(C)c(S(=O)(=O)NCC(=O)NCC2CCCCC2)c1C,0.0,-5,-1,-4.2,x,2,3.2
O=[N+]([O-])c1ccc(N2CCN(Cc3ccccc3)CC2)s1,28,-6,-13,0.5,8%,-18,-6.0
NC(=O)c1c(NC(=O)CSc2nnc(-c3ccccc3)n2CC2CCCO2)sc2c1CCC2 (stereo not given),-4.0,-23,11,-2.2,11%&5%,56,4.3
Cn1ncc2c(NNC(=O)C3CCCCC3)ncnc21,4.1,1,16,1.9,-5%,6,-2.5
O=C(COC(=O)c1cccc([N+](=O)[O-])c1)NCc1ccc2c(c1)OCO2,1.9,2,2,-2.1,x,57,-0.6
O=C(Nc1nc2ccccc2s1)c1cccc(S(=O)(=O)N2CCc3ccccc32)c1,5.3,-5,-6,0.6,u,x,-3.0
O=C(CCN1CCCO1)N1CCCC(N2CCN(c3cccc(C(F)(F)F)c3)CC2)C1 (stereo not given),-2.7,0,3,-0.7,x,0,-0.9
C[C@H](NC(=O)c1cc2cc(Cl)ccc2n1C)C(=O)N[C@@H](Cc1ccccc1)C(=O)O,-1.2,-1,-2,-3.3,-1%,-3,-2.1
NCCCC[C@H]1NC(=O)[C@H](CCC(=O)O)NC(=O)c2cc([N+](=O)[O-])cc(I)c2OCC[C@@H](C(N)=O)NC1=O,x,x,x,-2.5,11%,33,x
Cc1ccc2c(c1)N(CC(=O)NCC(C)c1ccccc1)C(=O)c1cccnc1O2 (stereo not given),1.6,-3,-4,-3.4,x,-2,-2.7
CCCCOC(=O)Nc1nnc(-c2ccccc2OC)s1,-5.4,2,-2,-1.3,-9%,0,0.0
COc1ccc(N2CCN(C(=O)c3ccc4[nH]c(C)c(C)c4c3)CC2)cc1,1.1,-4,x,-1.2,x,40,3.4
O=C(NCc1cccs1)c1cc2ccccc2o1,0.2,3,-28,1.8,-3%,-5,-4.5
CC(C)CNS(=O)(=O)c1cc(C(=O)OCC(=O)N(C)C2CCS(=O)(=O)C2)c(Cl)cc1Cl (stereo not given),-1.2,12,5,2.6,x,-2,u
Cc1nnc(SCc2nnc(-c3cccs3)o2)n1Cc1ccccc1,6.7,-9,1,x,2%,x,2.8
Cc1cc2[nH]ncc2cc1NC(=S)NC(=O)c1ccccc1,-3.1,-4,-15,-1.3,0%,-6,-38
COC(=O)CSc1nnc(CNC(=O)c2cccs2)n1-c1cc(OC)ccc1OC,-3.9,-4,x,2.2,64%,x,x
NC(=O)C1CCN(CCC(=O)Nc2ccc(F)c(F)c2)CC1,2.6,4,1,-1.7,19%,x,2.5
COc1ccc(C2=NS(=O)(=O)N(C)C(C(=O)N3CCC(C(N)=O)CC3)=C2)cc1,-4.4,-2,-9,1.1,x,-14,-1.7
CCCn1c(NC(=O)c2cccc(C)c2C)nc2ccccc21,0.2,-11,u,-2.0,4%,2,-1.0
c1ccc(Nc2nc(-c3ccncc3)nc3ccccc23)cc1,1.0,-4,u,x,x,x,10
O=C(N/N=C/c1cccnc1)c1cccc(Cl)c1,0.4,-1,4,4.3,-3%,-2,3.8
COc1ccc(Nc2nnc(SCC(=O)NC3CC3)s2)cc1,1.7,0,x,0.0,3%,4,x
# More compounds follow:
SMILES,HNF4A DNA FP,B2AR ag,Calb FLC,LANA-H2B inh,Vif A3G,ALR inh,RanGTP-Impb inh
CC(=O)c1cccc(-c2ccc(CN3C(CC(C)C)C(=O)N(Cc4cn(CC5CCCCC5)nn4)CCS3(=O)=O)cc2)c1 (stereo not given),0.6,-6,x,x,-2%,x,x
O=C1CC(N2CCN(c3ccccc3)CC2)C(=O)N1CCc1ccccc1 (stereo not given),3.2,-4,-6,-2.1,6%,95*,u
COc1ccccc1C(=O)NCCNC(=O)c1ccc(C)nc1,6.6,-12,-14,1.1,8%,0,-2.7
Cc1cc(C(=O)N/N=C2\CC(=O)c3ccccc32)c(C)n1-c1ccccc1,1.4,-4,9,4.7,u,9,3.7
O=C(N[C@H]1/C=C\[C@@H](O)CCCC1)OCc1ccccc1,-0.6,-6,x,x,5%,x,x
CN(C)S(=O)(=O)c1ccc(S(=O)(=O)N(Cc2ccco2)Cc2ccccc2Cl)cc1,0.3,-1,-25,-0.6,3%,2,2.2
CC1(C)CC(=O)C2=C(C1)N(c1ccc(F)cc1)C(N)=C(C#N)C2c1cccs1 (stereo not given),6.4,-5,6,3.7,19%,-15,-1.3
CC(C)(C)NC(=O)NC(=O)CN1C(=O)NC(c2ccccc2)(c2ccccc2)C1=O,-0.1,0,0,-1.1,10%,-1,-0.2
Cc1ccc(-c2csc(/C=C3\SC(C)C(=O)N3CC(=O)Nc3ccccc3F)n2)cc1 (stereo not given),2.8,8,6,2.4,-6%,-4,0.7
CN1c2ccccc2Oc2nnc(N3CCN(Cc4ccccc4)CC3)cc21,-3.0,0,-2,-5.5,7%,7,-0.8
Cn1ncc(Cl)c1C(=O)N1CCN(S(=O)(=O)c2ccc(Cl)s2)CC1,0.7,4,x,-9.0,x,0,x
CC(=O)CSc1ncnc2c1oc1ccccc12,-2.8,8,4,0.2,-44%,6,-2.4
Cc1ccc(S(=O)(=O)N(C)c2ccc(C(=O)NCc3ccccc3F)cc2)cc1,-0.1,8,x,3.2,-5%,-7,2.4
COc1ccc(OCCOC(=O)CN2C(=O)NC3(CCCC3)C2=O)cc1,0.5,-2,1,0.1,0%,x,4.4

# Rewritten as labelled records: entries from further up.
Cn1ncc(Cl)c1C(=O)N1CCN(S(=O)(=O)c2ccc(Cl)s2)CC1
  HNF4A DNA FP: 0.7	B2AR ag: 4	Calb FLC: x	LANA-H2B inh: -9.0	Vif A3G: x	ALR inh: 0	RanGTP-Impb inh: x
CN1c2ccccc2Oc2nnc(N3CCN(Cc4ccccc4)CC3)cc21
  HNF4A DNA FP: -3.0	B2AR ag: 0	Calb FLC: -2	LANA-H2B inh: -5.5	Vif A3G: 7%	ALR inh: 7	RanGTP-Impb inh: -0.8
O=C(N[C@H]1/C=C\[C@@H](O)CCCC1)OCc1ccccc1
  HNF4A DNA FP: -0.6	B2AR ag: -6	Calb FLC: x	LANA-H2B inh: x	Vif A3G: 5%	ALR inh: x	RanGTP-Impb inh: x
CC(=O)c1cccc(-c2ccc(CN3C(CC(C)C)C(=O)N(Cc4cn(CC5CCCCC5)nn4)CCS3(=O)=O)cc2)c1 (stereo not given)
  HNF4A DNA FP: 0.6	B2AR ag: -6	Calb FLC: x	LANA-H2B inh: x	Vif A3G: -2%	ALR inh: x	RanGTP-Impb inh: x
